PABP FP inh: PABP-poly(A) binding inhibition; P11940; PABP-poly(A) RNA binding, fluorescence polarization; inhibition, % at 35 µM; 1% of 290,000 active; AID 2014;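 active means 50% or more with normal probe brightness, or confirmed in later tests; inconclusive means above 50% with abnormal brightness, or retests that disagree; inactive means below 50% or failed in later tests; about a fifth of its hits are not listed in these tables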;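 further: calls also rest on retests at 20 µM and on dose response follow-up; controls were probe without protein and protein plus probe with vehicle; some compounds called inactive have numbers as strong as hits; many hits fall short of the cut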
Target sequence (P11940 whole entry, looked up): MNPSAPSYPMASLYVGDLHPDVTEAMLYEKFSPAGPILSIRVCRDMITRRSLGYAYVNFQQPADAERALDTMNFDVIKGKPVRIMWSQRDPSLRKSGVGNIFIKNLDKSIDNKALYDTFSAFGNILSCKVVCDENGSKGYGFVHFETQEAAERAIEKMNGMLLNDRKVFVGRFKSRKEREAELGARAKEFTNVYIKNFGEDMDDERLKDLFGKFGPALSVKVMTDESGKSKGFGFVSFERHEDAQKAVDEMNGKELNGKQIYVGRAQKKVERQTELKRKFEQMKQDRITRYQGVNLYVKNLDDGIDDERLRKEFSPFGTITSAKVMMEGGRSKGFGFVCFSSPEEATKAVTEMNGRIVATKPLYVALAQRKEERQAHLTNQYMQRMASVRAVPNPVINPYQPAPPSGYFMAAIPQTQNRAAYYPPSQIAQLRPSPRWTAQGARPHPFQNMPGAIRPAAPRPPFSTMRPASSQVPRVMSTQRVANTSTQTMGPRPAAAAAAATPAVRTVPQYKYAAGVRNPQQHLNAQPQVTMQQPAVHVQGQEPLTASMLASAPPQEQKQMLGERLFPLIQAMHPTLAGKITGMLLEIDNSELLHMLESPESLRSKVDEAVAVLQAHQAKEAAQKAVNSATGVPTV
CSC inhib: cancer stem cell inhibition. cancer stem cell-like cells viability, luminescence. inhibition, % at 7.5 µM. 1.1% of 300,000 active. AID 2717;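 active means mean at 75% or more and at least half the replicates too; inconclusive means mean and replicates disagree; tested in HMLE shEcad cells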;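 further: 0% = median of negative and 100% = median of positive control wells; the first replicate is given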
Rce1 inhib: inhibitors of yeast Ras-converting enzyme; calls only; 0.27% of 290,000 active; yeast membranes, quenched prenylated peptide cleavage fluorescence;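 active means fall in fluorescence gain of 50% or more versus controls, with final raw signal at or below 3038400; inconclusive means same 50% fall but final raw signal above 3038400; inactive means fall in fluorescence gain under 50%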;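 further: plate controls were neutral control wells for no effect and wells lacking membranes for full effect; tested at 10 µM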
Yeast UUG start: alters start codon recognition fidelity in yeast | activity score, % at 18.7 µM | S. cerevisiae UUG-firefly luciferase reporter, luminescence/redox ratio | 0.13% of 350,000 active;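 active means replicate mean at a twofold rise or more, about +100% in these data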;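 further: firefly luciferase made from a UUG start codon reports start codon fidelity; reporter light over untreated wells divided by growth signal over untreated wells; some hits fall short of that in this replicate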
eIF4H inh: inhibitors of RNA binding by human eIF4H. Q15056. eIF4H fluorescence polarization binding assay. inhibition, % at 35 µM. 0.94% of 290,000 active;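 active means 50% or more with normal probe brightness, or confirmed in later tests; inconclusive means above 50% with abnormal brightness, or retests that disagree; inactive means below 50% or failed in later tests; about a fifth of its hits are not listed in these tables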;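 further: calls also rest on retests at 20 µM and on dose response follow-up; 0% = protein and probe with vehicle and 100% = probe without protein; strong numbers were not always called active; many hits fall short of the cut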
Env fusion inh: inhibitors of HIV Env-mediated cell fusion | 1.1% of 360,000 active | HeLa-JRFL Env/CEM21 cell fusion, luciferase | AID 651610 | inhibition, % at 12.3 µM;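 active means mean replicate inhibition score of at least 50 and every replicate individually at or above 50; inconclusive means only one of the two criteria met; inactive means mean below 50 and not all replicates reaching 50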;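 further: 0% = plate neutral controls and 100% = maraviroc near 300 nM; one replicate is shown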
MT1-MMP act inh: MT1-MMP (human) activation inhibition. HT1080 RFP-PRO-GFP cells, GFP/RFP ratio fluorescence, overnight; percent of plate control window, DMSO zero. GFP/RFP ratio change, % at 20 µM. 0.061% of 360,000 active;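 active means GFP/RFP ratio change of at least 30% with cell ATP level not reduced by more than half and red fluorescence within 50% of control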; further: strong numbers were not always called active
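Material: RFP-PRO-GFP reporter HT1080 cells. Dosing: single-point 20 µM compound, 1% DMSO. Controls: DMSO and RFP-L50D-GFP cell wells. Timing: cells overnight before dosing, compound overnight, 37 °C, 5% CO2. Measure: GFP/RFP fluorescence ratio.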
MT1-MMP act inh RFP: recorded beside MT1-MMP act inh, whose call it bears; RFP signal change, %; measured here: RFP expression control read;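 0 = vehicle wells; hits needed this value within 50% of zero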
The depositor's hits bear a star; i = inactive; u = inconclusive; x = no result given.

The line under a structure holds: PABP FP inh, CSC inhib, Rce1 inhib, Yeast UUG start, eIF4H inh, Env fusion inh, MT1-MMP act inh, MT1-MMP act inh RFP
CCCN(CC(=O)Nc1cc(Cl)ccc1Cl)C(=O)CN1C(=O)C2CCCCC2C1=O (configuration not stated)
 : 3, -3, x, 13, -3, 30, 0, 2
Nc1nc(C2CCOCC2)cs1
 : 0, 0, i, -7, -4, -6, 1, 5
COc1ccc(C(=O)n2cnc3ccccc32)cc1Br
 : x, -5, i, 2, x, 10, 4, 6
N/C(=N\OC(=O)c1cccc2ccccc12)c1cccc([N+](=O)[O-])c1
 : -2, 2, i, -13, 6, -18, 8, 3
CCCCCOC(=O)CSc1nnc(-c2cc(OC)c(OC)c(OC)c2)o1
 : -4, x, i, -6, -9, 16, 7, 5
CC(C)(C)NCC(=O)N/N=C/c1ccc(OCc2ccccc2)cc1
 : -2, x, i, x, 5, -7, 2, 0
O=C(NC1CCCCC1)N(Cc1nc2ccccc2c(=O)[nH]1)C1CCCCC1
 : -4, 6, i, -1, -1, x, 0, -5
CC(C)c1nc(CNC(=O)CC2C(=O)NCCN2Cc2cccc(F)c2F)cs1 (configuration not stated)
 : 12, -5, i, 3, 4, -6, -3, 1
O=C(NCCCN1CCOCC1)c1cccc(S(=O)(=O)N2CCc3ccccc32)c1
 : x, x, x, 1, x, -15, 4, -2
CSc1ccc(/C=C/C(=O)OCC(=O)NC2CC2)cc1
 : x, -8, x, -17, x, x, 1, 2
O=C(NN=C1CCCC1)c1[nH]c2ccc(Cl)cc2c1-c1ccccc1
 : 1, 50, i, -6, -4, i, -6, -8
COc1ccccc1-n1cnc2cc(NC(=O)c3ccco3)ccc21
 : -1, 37, i, -10, 3, x, 5, -1
COc1cc(C2Nc3ccc4ncccc4c3C3=C2C(=O)CCC3)cc(OC)c1O (configuration not stated)
 : 48, 30, i, -8, 46, x, -11, -4
OCc1ccccc1-c1nc(NCc2ccccc2)nc2ccsc12
 : x, x, x, -8, x, 7, -9, 0
CONC(=O)c1ccc(-c2cccc3nccn23)cc1
 : x, x, x, -9, x, -10, 1, 5
CC1(C)Cc2c(c(=S)nc(-c3ccccc3)n2CCN2CCOCC2)CO1
 : -5, -7, i, -24, -12, -86, -38, -55
O=S(=O)(c1ccc2ccccc2c1)N1CCN(S(=O)(=O)N2CCCCC2)CC1
 : -2, 2, i, 6, 2, -25, 3, 0
COc1ccc(CCNC2=C(Cl)C(=O)N(CCc3ccc(OC)c(OC)c3)C2=O)cc1OC
 : -7, -6, i, -12, -3, 24, -9, -27
CCN(C(=O)CN1C(=O)c2ccc([N+](=O)[O-])cc2C1=O)C1CCS(=O)(=O)C1 (configuration not stated)
 : x, -7, i, 29, x, -13, -3, 4
CC(=O)Nc1ccc(NC(=O)CCC(=O)NCCO)cc1
 : -5, -9, i, -11, -2, x, -1, 1
CCC1CN(C(=O)NCc2ccc(C)cc2)c2cc(Cl)ccc2O1 (configuration not stated)
 : 6, 6, i, -6, -15, 14, -5, -4
O=C(c1cc(N2C(=O)C3C4CCC(C4)C3C2=O)ccc1Cl)N1CCN(c2ccccc2)CC1 (configuration not stated)
 : 2, -13, i, x, 3, 23, 0, -9
COc1ccc(C(=O)N2c3ccccc3C(=O)OC2c2ccc3c(c2)OCO3)cc1 (configuration not stated)
 : 7, 6, i, -6, 1, x, 1, -4
Cc1ccnc(N2CCC(C(=O)Nc3ccc4c(c3)OCCO4)CC2)n1
 : -3, 17, i, x, -3, 2, -1, 0
Cn1c(=O)c2cc(S(=O)(=O)NCCC(=O)NCCC3=CCCCC3)ccc2n(C)c1=O
 : -8, x, i, 0, 0, x, 1, 0
CC[C@@H](C)[C@@H](C(=O)N1CCN(C(=O)OC(C)(C)C)CC1)n1cc(CCCN=C(NC(=O)OC(C)(C)C)NC(=O)OC(C)(C)C)nn1
 : -7, -2, i, -9, -3, 4, 0, 8
CNc1sc(C(=O)c2ccc(F)cc2)c(N)c1-c1nc2ccccc2s1
 : 18, 9, i, -19, 1, -104, 10, 3
O=C(N1CCN(c2ccccc2)CC1)C1(S(=O)(=O)c2ccc(Cl)cc2)CC1
 : 3, x, i, 7, -17, 20, 1, -4
CCN(C(=S)Nc1ccc(OC(F)F)cc1)C1CCCCC1
 : 2, -9, i, x, 3, -1, 4, 4
O=C(O)c1cc(Cl)ccc1NC(=O)C1CCCO1 (configuration not stated)
 : 9, 0, i, -10, -10, x, -4, -3
O=C(Nc1nc2ccc(Cl)cc2s1)c1ccc(Br)o1
 : 0, 6, i, -32, -8, x, 3, -2
O=C(O)C1CC=C(Cl)CC1C(=O)NCc1ccccc1 (configuration not stated)
 : 6, -15, i, -9, 3, u, -4, 9
Cc1ccccc1NC(=O)c1ccc(CSc2ncccn2)cc1
 : 6, 1, i, -16, -5, x, -8, -6
O=C(Nc1ccc(N2CCOCC2)cc1N1CCOCC1)c1ccco1
 : -10, -13, i, -5, -1, -80, 1, -1
CS(=O)(=O)N1CCC(C(=O)N2CCN(C(c3ccccc3)c3ccccc3)CC2)CC1
 : 0, -3, i, -3, -2, -3, -4, -1
O=C(NC(=S)Nc1ccc(S(=O)(=O)Nc2nccs2)cc1)c1ccccc1F
 : -6, 0, i, x, 3, 0, 3, 3
Cc1cccc(-n2c(C)cc(/C=N/NC(=O)c3cccc([N+](=O)[O-])c3C)c2C)c1
 : 2, 0, i, -18, 11, x, 1, 2
COc1ccc(-n2ccc(-c3nn(-c4cccc(C(F)(F)F)c4)ccc3=O)n2)cc1
 : 1, -17, i, 1, 10, x, 0, -6
COCCNc1nc2c(c(=O)n(C)c(=O)n2C)n1CCCc1ccccc1
 : x, x, x, 1, x, 31, 1, 1
NNC(=O)c1ccc(COc2ccc3ccccc3c2)o1
 : 0, 8, i, x, -2, -4, -6, -2
CC(C#N)Sc1nc2ccccc2c(=O)n1-c1ccccc1 (configuration not stated)
 : 6, 1, i, 2, -6, x, -7, -2
CC1CCCc2sc3nc(N4CCN(CCO)CC4)n4ncnc4c3c21 (configuration not stated)
 : -10, 0, i, -20, 4, -28, 6, 1
CC(C)=C(NC(=O)c1ccccc1)C(=O)N1CCOCC1
 : 5, -9, i, -26, 11, x, 3, 4
CC(C)/C=N/Nc1nc2c(c(=O)n(C)c(=O)n2C)n1C
 : 9, -1, i, x, -9, -14, 3, -1
CCCCOc1ccc(C(=O)N/C(=C\c2cccc([N+](=O)[O-])c2)C(=O)OCc2ccco2)cc1
 : -4, 9, i, 2, 2, 1, 0, 7
CCCCCn1c(Sc2ncccn2)nc2c1c(=O)[nH]c(=O)n2C
 : -8, -3, i, -17, -5, x, -1, 3
CSc1nsc(SC)c1C(=O)Nc1ccc(C)cc1
 : -5, 7, i, -12, -4, x, -2, 0
CC(=O)c1c(C)[nH]c(C(=O)Nc2ccc(F)cc2F)c1C
 : 3, -3, i, -19, 1, -45, -7, -2
CCOC(=O)CNC(=S)n1ncnc1N
 : -6, 8, i, x, 2, 11, 0, 5
COC(=O)/C=C/C(=O)Nc1cccc(C(F)(F)F)c1
 : 3, 24, i, -18, 10, x, 2, 9
C/C=C/c1ccc(OCC(=O)Nc2cc(OC)c(OC)c(OC)c2)c(OC)c1
 : 24, -16, i, x, -6, -142, 4, -8
Cc1nc(SCC#N)c2c(C)c(C)sc2n1
 : 7, -3, i, x, 50, -446, 2, 12
COc1ccc(N2CCN(C(CNC(=O)C(C)(C)C)c3cccnc3)CC2)cc1 (configuration not stated)
 : -5, -6, i, -10, -14, -5, -1, -1
COc1cnn(C(C)(C)C)c(=O)c1Cl
 : 5, -10, i, x, 1, -24, -1, 0
CN(C)CCNCc1ccccc1OC1CCCC1
 : 12, 7, i, -9, 6, -4, -2, -1
CC(Cc1ccccc1)C(=O)NCc1ccccn1 (configuration not stated)
 : -11, -5, i, -14, 2, -11, 2, 3
CC(=O)Cc1nsc(NC(=O)c2ccc(-c3ccccc3Cl)o2)n1
 : 5, 27, i, -6, 6, -363, 5, 2
COc1ccc(C(=O)Nc2cccc(C(=O)O)c2)cc1S(=O)(=O)N1CCCC1
 : -9, -9, i, 8, -8, 7, 0, 4
Cc1ccc(-c2cc(NC=O)c3ncc(-c4cccc(C(=O)N(C)C)c4)n3c2)cc1
 : x, x, x, 6, x, 21, -6, 1
CCCCNC(=S)N1CCN(c2nc3ccccc3s2)CC1
 : 4, -1, i, x, -2, -1, 6, -8

Following part:
The line under a structure holds: PABP FP inh, CSC inhib, Rce1 inhib, Yeast UUG start, eIF4H inh, Env fusion inh, MT1-MMP act inh, MT1-MMP act inh RFP
CCN(CC)C(=O)C(=O)N/N=C/c1cccc(Br)c1
 : 4, -19, i, x, -11, x, 2, 0
COc1cccc(OC)c1C(=O)Nc1cccc(C(C)=O)c1
 : 4, -5, i, -9, 2, -39, 7, 2
CC12CCC(C(=O)N3CCN(C(c4ccccc4)c4ccccc4)CC3)(OC1=O)C2(C)C (configuration not stated)
 : 2, 14, i, -13, 7, -12, -3, -7
Cc1cccc(NC(=O)CCC(=O)Nc2nnc(C(F)(F)F)s2)c1
 : -4, 4, i, x, -4, 5, -1, 2
CCCCS(=O)(=O)N1CCCC(C(=O)Oc2ccccc2)C1 (configuration not stated)
 : 2, -6, i, -16, 6, 4, -3, 0
CN(C)/C=N/c1sc2c(c1C#N)CCCCC2
 : -7, -5, i, -8, 12, -21, 4, 3
O=C(NC1CC1)c1ccccc1NC(=O)c1ccccc1OC(F)F
 : x, x, x, -17, x, 5, 0, -5
COc1ccc(-c2c(-c3cc(OC)cc(OC)c3)n(C)c3ccc(-c4cnc(N)nc4)cc23)cc1
 : x, x, x, -15, x, 41, -1, 1
COc1ccccc1CN1C[C@@H]2C[C@@H](c3ccccc3OC)N3CCC[C@@]23C1=O
 : 0, -5, i, -4, 4, -2, -2, 4
O=C(C1CC1)N1CCN(c2ccc([N+](=O)[O-])cc2-n2cccc2)CC1
 : 0, -17, i, x, -2, 1, 6, 0
CCSc1nncn1/N=C/c1ccc(OC)c(OC)c1
 : 0, x, i, -15, 17, x, -4, 4
c1ccc(CCc2nc(-c3ccccc3)no2)cc1
 : -9, 1, x, -17, 5, -123, -1, -3
CC(C)C(c1nnnn1CC1CCCO1)N1CCN(C2CCCC2)CC1 (configuration not stated)
 : 11, -7, i, -4, -5, x, x, x
Cc1ccc(C(=O)Oc2cc(C)n(C)c(=O)c2)cc1
 : -2, -9, i, -24, -2, x, 6, 5
NC(=O)N1CC(O)CC1C(=O)Nc1ccc(Cl)c(Cl)c1 (configuration not stated)
 : x, -5, x, -1, x, x, 8, -4
C/C(=N\Nc1nc(C)cc(=O)[nH]1)C1CC1
 : -10, 1, i, -24, 10, 7, -4, 0
COC(=O)c1cc(OC)c(OC)cc1NC(=O)Cc1ccccc1[N+](=O)[O-]
 : 0, 2, i, -13, -8, 23, 7, -3
O=C(CCN1C(=O)c2ccccc2S1(=O)=O)Nc1ccc2c(c1)OCCO2
 : 19, 8, i, -7, 10, x, x, x
CN(C)c1ccc(/C=N/n2c(-c3cccnc3)n[nH]c2=S)cc1
 : 9, -2, i, x, -9, 12, 4, -2
NC(=O)c1nsc(C(=O)N(CCCN2CCOCC2)C(C(=O)NC2CCCCC2)c2ccc(Cl)cc2)c1N (configuration not stated)
 : -10, -8, x, -1, 13, -2, -1, -3
CCN(c1ccccc1)S(=O)(=O)c1ccc(C(=O)N2CCN(c3ccccc3)CC2)cc1
 : x, -7, x, 5, x, -17, 8, -8
Cc1ccc(Cc2c(-c3ccccc3)nc3ccc(Cl)cn23)cc1
 : x, x, x, -12, x, -11, -3, -2
COc1cccc(C(C)(O)c2nc(-c3ccc(C)c(C)c3)cs2)c1 (configuration not stated)
 : x, x, x, -25, x, 7, -2, -11
O=C(CCC(=O)N1CCN(c2cccc(Cl)c2)CC1)N1CCN(c2ccccc2)CC1
 : 0, 43, i, 13, -4, 28, 4, -13

Source: PubChem (several laboratories)
